ugtP null kill: growth inhibition of ugtP-null S. aureus, primary screen, RN4220 ugtP deletion, OD600 | actives 0.54% (n = 330,000) | 16 h; some inactives read as strong as hits | growth inhibition, % (no concentration beside the values) | AID 1259309, 2017;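 active = z-score under -3 and OD600 up to 0.15 on both plates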;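 note: plate controls were untreated wells for no effect and antibiotic for full effect; wells of about 80 µL received 100 nL stock; the first replicate is given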
PrP UTR inh: inhibition of PrP 5' UTR reporter expression | cell-based PrP 5' UTR mRNA reporter, plate reader | inhibition, % (no concentration beside the values) | actives 0.35% (n = 340,000);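 active = every replicate at 50% or more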;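 note: 0 = median of the neutral control wells; tested in H4 reporter cells; numbers are from one replicate; inactives centre near -14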
RN4220 kill: growth inhibition of S. aureus RN4220, primary screen, OD600; actives 0.33% (n = 330,000); 16 h; inhibition, % (test concentration not listed);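 active = z-score of -3 or lower and OD600 up to 0.18 on both plates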;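 note: plate controls were untreated cells for no effect and reference antibiotic for full effect; stock transfer was 100 nL into about 80 µL; one replicate is shown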
Bead autofluor: flagged as autofluorescent in microsphere protease counterscreen | compound autofluorescence counterscreen, microsphere flow cytometry; hits give high values | fluorescence intensity (test concentration not listed) | actives 3.1% (n = 360,000) | AID 624483;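 active = at least 3 SD above the mean of all compounds, about 16000 in these data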;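 note: 100 nL of 1 mM stock went into each well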
Mtb hypoxia rep: PubChem AID 1159583 | M. tuberculosis hypoxia-regulated fluorescent reporter, fluorescence | fluorescence inhibition, % (test concentration not listed) | actives 0.1% (n = 300,000);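 active = 35 to 45% if threefold the growth effect, above 45% if 1.5-fold the growth effect; inactive = the rest, general growth blockers included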;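 note: wells of about 50 µL received 100 nL stock; 0% = vehicle wells and 100% = reference inhibitor wells; whole bacteria with a GFP reporter of the hypoxia response; strong numbers were not always called active; many hits fall short of the cut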
BJeLR lethal: MLPCN primary cell-based screen for lethality selective to Ras in HRASV12 cells | BJeLR (HRASV12) viability, CellTiter-Glo ATP luminescence, 48 h; reference of the scale not given here | inhibition, % (concentration not given with the values) | actives 0.17% (n = 300,000);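 active = replicate mean above 50%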;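 note: 50 nL library stock added to about 25 µL; numbers are from one replicate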
Mtb hypoxia rep growth: recorded beside Mtb hypoxia rep, whose call it bears; growth inhibition, %; measured here: M. tuberculosis growth (absorbance);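 0% = vehicle and 100% = reference antibiotic; read after six days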
* marks the source's active call; other numbers are inactive results; . = not tested or not shown. Hits appear at their usual frequency; 4% or so of the library scored in one or more.

No.	structure	ugtP null kill	PrP UTR inh	RN4220 kill	Bead autofluor	Mtb hypoxia rep	Mtb hypoxia rep growth	BJeLR lethal
1	CC1(C)CC2CC(C)(CN2S(=O)(=O)c2ccccc2[N+](=O)[O-])C1 (stereo not drawn)	5	-24	9.6	8462	-4	3	.
2	O=C(O)c1cc(-c2cccs2)nn1-c1cccc(Cl)c1	0	10	1.4	3304	2	2	-20
3	O=C1C2CC=C(Cl)CC2C(=O)N1CC1Cc2ccccc2CO1 (stereo not drawn)	-1	-52	3.1	6666	.	.	-3
4	CCc1ccc(OCC(=O)NNC(=O)c2cc3ccccc3o2)cc1	1	-18	7.8	4457	6	6	9
5	COc1ccc(Cl)cc1NC(=O)[C@@H]1CCCN1C(=O)c1cccs1	0	-10	2.3	2016	-1	12	5
6	COc1ccccc1C=NNC(=O)CCn1cnc2ccccc21	1	.	1.1	.	5	0	.
7	CCCCCCCCOC(=O)/C=C/c1c(C)[nH]c(=O)[nH]c1=O	19	-14	16	8071	6	2	-5
8	Cc1cccn2c(CNCCCn3ncc4ccccc43)c(C(=O)N3CCCCC3)nc12	11	-15	4.2	3796	2	4	7
9	CN(C)c1ccc(NS(=O)(=O)c2cc(Cl)ccc2Cl)cc1	-5	-19	5.9	1626	2	7	-19
10	CCCCC(=O)Nc1cccc(NC(=S)NC(C)=O)c1	1	-37	2.9	2501	11	5	-5
11	C#CCOCCOCCOCCNc1nc(N2CCN(C(=O)[C@H](CCC(=O)O)n3cc(C(N)CO)nn3)CC2)nc(N2CCN(C(=O)[C@H](Cc3cc4ccccc4[nH]3)n3cc(C(N)[C@H](C)CC)nn3)CC2)n1 (stereo partly drawn)	.	-19	.	4647	.	.	-1
12	CCOC(=O)N1CCN(C(=O)c2ccc3c(c2)N(Cc2cc(C)ccc2C)C(=O)c2ccccc2S3=O)CC1 (stereo not drawn)	-2	-1	0.0	6289	-18	5	1
13	Cc1ccc(-c2c(C#N)c(N)n3c(nc4ccccc43)c2C#N)cc1	4	-3	14	4249	.	.	7
14	Cc1cc(NC(=O)CSc2nc(=O)cc(N)n2-c2ccc(F)cc2)no1	0	-4	2.0	5576	-4	3	-10
15	CC(=O)c1cc2ccccc2oc1=O	-5	-7	2.7	3646	-5	6	.
16	O=C1CCCCC1	6	-16	3.4	5243	6	1	.
17	CC1CN(C(C)CO)C(=O)c2cccc(N(C)C)c2OC1CN(C)Cc1ccncc1 (stereo not drawn)	10	.	11	.	2	-1	.
18	CC(=O)Nc1ccc(NC(=O)Cn2cnc(S(=O)(=O)N3CCOCC3)c2)cc1	-2	-11	-2.0	5517	-9	-5	1
19	CCOC(=O)c1sc(Nc2nc3c(F)cccc3s2)cc1C	.	-68	.	2407	.	.	-7
20	NN=C(Cc1cscn1)c1ccc(O)cc1O	-2	.	5.1	.	3	7	.
21	CC(=O)c1cnn(-c2nc3c(C)cccc3s2)c1C	-11	-29	12	3244	4	8	-6
22	COc1cc(NS(=O)(=O)c2ccc(NC(=O)/C(=C/c3ccccc3Cl)NC(=O)c3ccccc3)cc2)nc(OC)n1	0	-1	6.3	2156	8	6	1
23	O=C(O)/C=C\C(=O)Nc1ccccc1C(=O)N1CCN(c2ccc(Cl)cc2)CC1	6	-24	1.4	4291	.	.	0
24	CC(C)Cc1cc(-c2ccco2)c(C#N)c(N)n1	0	-12	1.1	3315	.	.	-7
25	Cc1ccc(C(C)C)c(OCCN)c1	6	-27	4.8	9140	14	3	-1
26	CC(OC(=O)C1=COCCO1)C(=O)Nc1ccc(Cl)cn1 (stereo not drawn)	4	6	2.2	5634	0	3	-4
27	Cn1c(O)c(C2=NNC(c3ccc(Cl)cc3)C2)c(=O)n(C)c1=O (stereo not drawn)	3	-6	3.2	3143	-3	-2	1
28	N#C/C(=N\Nc1ccccc1Cl)C(=O)c1ccccc1	.	-6	.	6576	.	.	3
29	COc1ccc(-c2oc3ccc(-c4cc(OC)c(OC)c(OC)c4)cc3c2C#Cc2ccccn2)cc1	8	-18	7.7	3588	5	11	.
30	Cc1ccc(S(=O)(=O)Oc2ccc(/C=C(/NC(=O)c3ccccc3)C(=O)NCC(=O)O)cc2)cc1	4	-7	2.0	3373	0	3	-6
31	O=C(Nc1cccc(Cl)c1Cl)C1CCN(c2ncccn2)CC1	-3	-28	-3.1	22389*	-8	11	1
32	Cc1nc2ccccc2c(C)c1C(=O)c1ccc(F)cc1	19	-10	2.0	4235	5	8	12
33	COc1ccccc1N(CC(=O)NCCc1ccccc1)C(=O)CCC(=O)Nc1cc(C)ccn1	3	-23	6.2	3150	14	4	-15
34	CCOC(=O)c1cc(C)n(Cc2ccccc2)c1C	9	-3	0.5	5738	-3	5	-10
35	Cc1ccc(S(=O)(=O)N2CCCN(C)c3nc4ccccc4nc32)cc1	-8	-2	4.1	6514	1	2	.
36	Cc1[nH]n(-c2ccc(Cl)cc2)c(=O)c1N=Nc1cccnc1	-4	-32	-5.2	4473	-4	-14	-3
37	Cc1ccccc1NC(=S)N(CCc1c(C)[nH]c2ccc(F)cc12)Cc1ccncc1	0	-59	0.1	6076	7	-1	8
38	COc1ccc(NC(=O)c2cc(=O)c3ccccc3o2)cc1Cl	5	-36	-0.9	3434	11	3	7
39	CC1CCN(S(=O)(=O)c2ccc(S(=O)(=O)NCc3ccco3)cc2)CC1	2	1	2.0	6421	-2	4	5
40	Clc1ccc(NN=Cc2cccnc2)cc1	-13	.	-5.1	.	9	1	.
41	O=C(CCn1cccc1)N1CCc2ccccc21	-4	-24	1.3	2433	-6	5	-14
42	CCCCC1(CC(=O)OCC)C(=O)N(c2ccccc2)N(c2ccccc2)C1=O	2	-3	2.9	6771	-7	0	1
43	O=C(CSc1nc2ccccc2c(=O)n1-c1ccc(F)cc1F)c1c[nH]c2ccccc12	-13	-28	-19	2659	2	2	-13
44	CC12CCC(=O)N1C(C(=O)Nc1ccc(F)c(Cl)c1)CS2 (stereo not drawn)	-2	-12	1.3	7466	-1	-7	14
45	O=C(NN=Cc1ccc2c(c1)OCO2)c1cc(-c2ccncc2)nc2ccccc12	9	.	5.7	.	9	-3	.
46	C/C(C=NN1CCN(c2ccccc2)CC1)=C\c1ccccc1	4	.	0.2	.	1	7	.
47	O=c1c(Cl)c(NCc2ccc(F)cc2Cl)cnn1C12CC3CC(CC(C3)C1)C2	-6	-12	2.8	8605	6	3	5
48	Cc1ccc(NC(=O)C2CCC(C(C)(C)C)CC2)cc1S(=O)(=O)N1CCOCC1 (stereo not drawn)	-25	-7	-3.8	3576	14	9	.
49	CCC(C)OC(=O)C1C(c2ccccc2)C(C(=O)O)C1c1ccccc1 (stereo not drawn)	-18	-17	9.4	10259	-7	-7	-1
50	CC(C)NC(=O)/C(=C\c1cccc([N+](=O)[O-])c1)NC(=O)c1ccccc1	-2	-1	7.0	22798*	10	11	-3

Next part.
No.	structure	ugtP null kill	PrP UTR inh	RN4220 kill	Bead autofluor	Mtb hypoxia rep	Mtb hypoxia rep growth	BJeLR lethal
51	Cc1cccc(C)c1OCc1nc2ccccc2[nH]1	-2	-7	1.7	1895	0	-1	3
52	COc1cc(NC(=O)CCN2CCN(C)CC2)cc(OC)c1	14	-26	2.7	3688	-2	7	-13
53	COc1ccc(NC(=O)c2sccc2-n2cccc2)cc1	15	-3	-1.2	4101	13	1	-6
54	CC1CCC(C(C)C)C(OC(=O)CSc2nc(N)cc(=O)[nH]2)C1 (stereo not drawn)	-5	.	10	11601	-9	-2	4
55	COCCN(C(=O)CCC(=O)Nc1cc(C)on1)C(C(=O)NC1CCCC1)c1ccccc1C (stereo not drawn)	-2	-8	2.2	4431	12	2	-1
56	C=CCN1C(=O)C(Cc2cccc(Cl)c2)SC1=NN=Cc1ccco1 (stereo not drawn)	0	.	6.0	.	-3	1	.
57	CC(NCc1cccnc1)c1ccccc1 (stereo not drawn)	-3	-28	0.4	3202	10	7	-3
58	Cc1cc(C)nc(N2CCN(c3nc(C)cc(C)n3)CC2)n1	10	.	2.2	.	11	5	1
59	CCN1C(=O)c2cccc3c(S(=O)(=O)Nc4c(C)n(C)n(-c5ccccc5)c4=O)ccc1c23	8	-9	4.0	2744	.	.	-6
60	O=C(c1nn2c(C(F)(F)F)cc(-c3ccccc3)nc2c1Cl)N1CCOCC1	19	-27	1.9	8552	8	3	-1

Exported with one line to a screen: entries from further up
55) COCCN(C(=O)CCC(=O)Nc1cc(C)on1)C(C(=O)NC1CCCC1)c1ccccc1C (stereo not drawn)
56) C=CCN1C(=O)C(Cc2cccc(Cl)c2)SC1=NN=Cc1ccco1 (stereo not drawn)
57) CC(NCc1cccnc1)c1ccccc1 (stereo not drawn)
Screen / compound no.,55,56,57
ugtP null kill,-2,0,-3
PrP UTR inh,-8,.,-28
RN4220 kill,2.2,6.0,0.4
Bead autofluor,4431,.,3202
Mtb hypoxia rep,12,-3,10
Mtb hypoxia rep growth,2,1,7
BJeLR lethal,-1,.,-3

Remaining list, next part:
No.	structure	ugtP null kill	PrP UTR inh	RN4220 kill	Bead autofluor	Mtb hypoxia rep	Mtb hypoxia rep growth	BJeLR lethal
61	O=C(NC1CCN(Cc2ccccc2)CC1)c1cccc(S(=O)(=O)Nc2ccc(Br)cc2)c1	0	-7	-1.2	12036	3	5	7
62	COc1ccc(NC(=O)CCCn2nc(C)c3c(C)n(-c4ccccc4)nc3c2=O)cc1	5	-18	1.6	6663	15	3	-13
63	Cc1ccn2cc(CNS(=O)(=O)c3cccs3)nc2c1	6	-8	3.5	4819	3	4	-7
64	COC(=O)CC1(C(=O)OC)Oc2ccccc2C(=O)N1c1ccc(F)cc1F (stereo not drawn)	3	-19	4.0	.	5	8	-1
65	COc1ccc(NC(=O)CSc2nnnn2-c2ccc(OC)cc2)cc1	2	0	1.9	3334	3	12	-8
66	CCN(CC)CCC(=O)N1c2ccccc2Sc2ccc(NC(=O)OC)cc21	2	6	3.0	3977	7	8	1
67	O=c1nc(Nc2ccccc2)oc2ccccc12	2	-57	6.4	4478	3	6	6
68	COc1ccc(/C=C(/NC(=O)c2ccco2)C(=O)Nc2cccc(C(=O)O)c2)cc1	2	-8	4.3	3497	11	8	-4
69	CCn1c(SCC(=O)N2CCc3ccccc32)nc2c(c1=O)SC(C)C2 (stereo not drawn)	-5	.	-10	4160	4	1	-2
70	Cc1nc(-c2ccccn2)nc(SCC(=O)N2CCOCC2)c1Cl	17	-7	3.4	.	-9	-8	5
71	O=C(OCCCc1cc2ccccc2c(=O)o1)c1ccco1	1	-9	1.7	3561	2	-5	.
72	COC(=O)[C@H](CC(C)C)NC(=O)Nc1ccc2c(c1)OCCO2	-3	-27	0.7	22561*	2	1	7
73	CCN1CCN(c2ccc(S(=O)(=O)N3CCOCC3)cc2NC(=O)c2ccc(Cl)cc2Cl)CC1	-12	-5	3.7	5787	9	3	-6
74	COC(=O)c1cccc2c1-c1ccccc1C2=NNC(N)=O	-6	.	-2.5	.	3	2	.
75	O=C(Nc1cc(C(F)(F)F)ccc1-n1cncn1)c1ccc(F)cc1Cl	-3	-21	-0.5	8370	4	-2	.
76	COc1cccc(C(=O)NNC(=O)Cc2cccs2)c1	3	-25	3.1	4439	0	9	-13
77	CCN(CCO)C(=O)C(c1ccccc1)c1ccccc1	6	-29	0.8	2722	.	.	-7
78	COc1cccc(OC)c1C(=O)Nc1ccc2c(c1)CCCN2S(=O)(=O)c1ccc(C)cc1	9	48	2.3	4454	6	-4	3
79	CCOc1ccc(S(=O)(=O)NCCC(=O)NC2CCC(C)CC2)cc1 (stereo not drawn)	2	-7	0.2	3708	1	9	.
80	COc1ccc([C@H]2CC(=O)C=C(c3cc4ccccc4c4ccccc34)C2)cc1	19	-5	-10.0	4365	7	5	.
81	Oc1ccc(Nc2ncnc3scc(-c4ccccc4)c23)cc1	9	-9	0.8	6751	13	8	9
82	Cc1ccccc1OCC(=O)NNC=O	1	-19	-0.4	4411	8	-2	-4
83	O=C(CCSc1nc(-c2ccco2)cc(C(F)(F)F)n1)N1CCCc2ccccc21	-13	-20	4.7	2921	9	10	1
84	O=C(N/C(=C\c1ccc(Br)cc1)C(=O)N1CCOCC1)c1ccccc1Cl	14	-14	4.5	5612	-2	-11	7
85	CCN(CC)S(=O)(=O)c1ccc(Cl)c(NC(=O)COc2ccc3c(C)cc(=O)oc3c2)c1	5	-16	4.9	2226	-10	-6	-20
86	C=CCNC(=S)NCCCCC1NC(=S)N(CC=C)C1=O (stereo not drawn)	9	-16	-3.1	2802	-5	7	-3
87	O=C(Nc1ccc2c(c1)oc1ccccc12)N1CCOCC1	-13	-99	-4.8	3018	8	5	7
